# D2 potentiator – human D2 receptor positive allosteric modulation. P14416. DiscoveRx D2 beta-arrestin cells, luminescence, 90 min; 100% = 57 uM dopamine signal. potentiation, % (test concentration not listed). actives 0.23% (n = 360,000); active = potentiation of 50% or more; inconclusive = 30% to 50%; inactive = 30% or less;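 also: compound concentration not given in the record; tested on top of an EC20 dose of dopamine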
# Target sequence (P14416 whole entry, looked up): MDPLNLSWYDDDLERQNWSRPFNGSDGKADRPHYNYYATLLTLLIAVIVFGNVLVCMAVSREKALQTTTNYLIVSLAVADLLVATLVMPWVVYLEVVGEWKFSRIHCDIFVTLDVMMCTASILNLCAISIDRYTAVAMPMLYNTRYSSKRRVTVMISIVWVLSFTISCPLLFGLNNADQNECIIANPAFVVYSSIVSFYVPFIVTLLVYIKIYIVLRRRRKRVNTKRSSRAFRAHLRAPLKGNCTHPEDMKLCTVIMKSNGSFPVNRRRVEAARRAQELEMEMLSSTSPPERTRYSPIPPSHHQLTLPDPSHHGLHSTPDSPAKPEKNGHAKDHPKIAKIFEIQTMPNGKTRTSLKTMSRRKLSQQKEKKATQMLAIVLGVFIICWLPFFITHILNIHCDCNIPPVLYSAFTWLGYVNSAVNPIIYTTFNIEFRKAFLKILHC
#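 PathHunter D2 cells, attached overnight at 37 deg C, received compound in DMSO plus dopamine at EC20 (50 nM final) for 90 min at 37 deg C. Beta-arrestin recruitment was read as luminescence after 1 h with detection reagent at ambient temperature.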
# TRPV1 PAM – potentiators of human vanilloid receptor 1 (TRPV1); actives 0.02% (n = 320,000); potentiation, % at 8.33 µM; Q8NER1; TRPV1-expressing cells, Fluo-8 calcium influx, capsaicin EC20 potentiation; host cell line not named in the record; control for the full effect not named in the record; active means potentiation above 80%; inconclusive means 30% to 80%; inactive means below 30%; also: 0% is about no effect
#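 Cells expressing TRPV1 were dye-loaded with Fluo-8 and read kinetically: 10 s baseline, 3 min after compound (agonist portion), then 2 min after EC20 capsaicin (allosteric enhancer portion). Calcium-bound dye fluorescence at 480/520 nm.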
# ClpP mod – qHTS Assay for Activators of ClpP; Potency, µM (highest dose often 57.5 µM), without a hit: at the highest dose activity change, negative = active; actives 1.9% (n = 340,000); ATP-dependent Clp protease proteolytic subunit (Bacillus subtilis (strain 168)), P80244; purified B. subtilis ClpP, FRET peptide cleavage, 20 min; active = well fitted falling curve with a large enough effect; inconclusive = small, poorly fitted or top-dose-only effect; inactive = no such curve, though single readings can be large or run the other way; also: potency is read from the fitted curve at half-maximal effect; the source files actives as falling curves though it sought activators and does not explain the sign; nearly all actives have a fitted effect of over 65% in size; many hits overshoot -100%
# Target sequence (P80244 whole entry, looked up): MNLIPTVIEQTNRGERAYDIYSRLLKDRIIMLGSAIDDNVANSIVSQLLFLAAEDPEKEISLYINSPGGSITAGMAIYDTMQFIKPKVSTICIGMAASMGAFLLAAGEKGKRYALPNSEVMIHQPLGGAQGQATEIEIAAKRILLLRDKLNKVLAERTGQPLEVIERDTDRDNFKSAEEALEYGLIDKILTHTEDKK
#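 Buffer: 100 mM Tris/HCl pH8, 100 mM KCl, 0.05% low protease BSA, 2.5% glycerol, 0.01% Tween-20. ClpP 10 microg/mL final; 20 min RT; delta FRET normalized to ADEP and DMSO controls.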
# gsp antagonist – antagonists of gsp mutant (McCune-Albright syndrome) | gsp-mutant cells, cAMP HTRF, 30 min; control for the full effect not named in the record | Potency, µM (top dose mostly 76.9 µM), for inactives: at the highest dose activity change, negative = inhibition, hits mostly inhibitors | actives 0.4% (n = 340,000) | AID 624288; active = falling curve of any shape with a large fitted effect; inconclusive = falling curve, mostly with a smaller effect; inactive = flat or rising curve; cell line not stated here;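 also: intracellular cAMP measured with PDE inhibitor Ro 20-1724 present during compound exposure; potency is read from the fitted curve at half-maximal effect; % is scaled to controls: 0 for no effect and ±100 for the full control effect; nearly all actives have a fitted effect of over 65% in size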
#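 HTRF cAMP measurement after 30 min RT detection following 30 min, 37C compound treatment alongside […] (added as 300 uM solution) in G418-selected cells seeded at 2000/well and grown 16–24 h.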
# gsp ag – activates gsp, the McCune-Albright syndrome mutation. Potency, µM (top dose mostly 76.9 µM), for inactives: at the highest dose activation (cAMP increase), hits mostly activators. gsp mutant cells, cAMP HTRF, 30 min; control for the full effect not named in the record. actives 0.13% (n = 340,000); active = well fitted activation curve with a large enough effect; inconclusive = small, poorly fitted or top-dose-only effect, or another doubt; inactive = no such curve, though single readings can be large or run the other way; cell line not stated here;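 also: phosphodiesterase inhibitor Ro 20-1724 added with compounds to block cAMP breakdown; potency is read from the fitted curve at half-maximal effect; nearly all actives have a fitted effect of over 60% in size; about a fifth of the inactives were tested at one dose only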
#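 Cells in DMEM/10% FBS with G418 were pretreated with compounds in DMSO plus […] (300 uM stock) for 30 min at 37C. cAMP was measured by HTRF (cAMP-d2 plus anti-cAMP antibody-K) after 30 min at room temperature.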
# Menin MLL FP FL – displaces fluorescein MLL peptide from human menin; Fluorescence polarization, fluorescein-MLL peptide displacement from menin; FP activity change, % at 61.4 µM; 290,000 tested, under 10 active; AID 1766; inconclusive = falling polarisation curve, or a change in total fluorescence; inactive = total fluorescence flat and polarisation flat or rising; no compound was filed as active; the % refers to the polarisation; negative = inhibition;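 also: % of control where 0% means no effect; inhibitors lower the polarisation; unlabelled MLL peptide was the positive control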
# Sfp PPTase inh – inhibitors of Bacillus subtilis Sfp phosphopantetheinyl transferase | Potency, µM, for the others: max response, negative = inhibition, most hits filed as inhibitors | Q9F4F7 | Biochemical Sfp PPTase activity, qHTS | AID 1490 | actives 3.5% (n = 310,000); active = well fitted inhibition curve with a large enough effect; inconclusive = small, poorly fitted or top-dose-only effect, or another doubt; inactive = no such curve, though single readings can be large or run the other way;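 also: the enzyme is Sfp with the accession as filed and its product quenches rhodamine fluorescence; potency is read from the fitted curve at half-maximal effect; 0% = enzyme reaction without inhibitor and -100% = no enzyme wells; top concentration of the series not given in the record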
#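 Fluorescence-quenching assay with 15 nM Sfp, 5 uM rhodamine-CoA and 12.5 uM BHQ-2-labelled ybbR peptide in pH 7.6 Hepes/MgCl2 buffer. Enzyme was pre-incubated with compound for 15 min at room temperature. Rate was taken from the 30-min fluorescence change (525/598 nm).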
# * = called active by the depositor; ? = inconclusive; / = not tested or not shown; & = joins results of further samples; [ ] = dose if it differs, or a comment.
smiles	Sfp PPTase inh	gsp antagonist	D2 potentiator	Menin MLL FP FL	TRPV1 PAM	ClpP mod	gsp ag
O=C(Nc1cccc(C(F)(F)F)c1)C1CCCN1S(=O)(=O)c1cccc2cccnc12 (stereo not given)	8%	?	-15	4.1	/	0.1%	-21%
CC(C)Cc1nnc(NC(=O)CCc2c[nH]c3ccccc23)s1	8%	-12%	-4	1.0	9	0.2%	-8%
COc1ccc(Cl)cc1NC(=O)CCN1CCN(c2ccccc2C)CC1	7%	4%	-16	-1.7	3	0.3%	0%
CC(=O)Nc1ccccc1NC(=O)CN(C)S(=O)(=O)c1ccc(C)cc1	12%	5%	-3	5.1	6	-22%	-7%
CC(C)C(C(=O)OCC(=O)c1cccc([N+](=O)[O-])c1)N1C(=O)[C@@H]2[C@H]3CC[C@H](C3)[C@@H]2C1=O (stereo not given in full)	-3%	-8%	-14	-2.7	0	0.3%	6%
CC(=O)Nc1ccc(S(=O)(=O)N2CCN(C(=O)c3ncoc3-c3ccccc3)CC2)cc1	26%	-39%	-5	4.1	6	/	9%[15.4 µM]
Cc1ccc(-c2nnn(C/C(N)=N/O)n2)cc1	13%	6%	3	-1.2	2	0.8%	-2%
Cc1c(NC(=O)COC(=O)c2ccc(F)c(S(=O)(=O)N3CCOCC3)c2)c(=O)n(-c2ccccc2)n1C	-6%	/	-1	3.0	-9	/	23%[15.4 µM]
c1ccc2sc(NN=C3CCCC3)nc2c1	-21%	2%	-7	-2.5	3	/	0%[15.4 µM]
COc1cc(C(=O)NNC(=O)c2cc(C)[nH]n2)cc(OC)c1OC	-14%	10%	-2	-1.8	-4	/	5%[15.4 µM]
Fc1ccc(Nc2nc(-c3ccncc3)cs2)cc1	-3%	-10%	-7	0.2	-1	0.0%	11%[15.4 µM]
CCCC(=O)N(c1ccccc1)C1C=CS(=O)(=O)C1 (stereo not given)	12%	-3%	11	-1.2	?	/	-15%[15.4 µM]

# New compounds follow.
smiles	Sfp PPTase inh	gsp antagonist	D2 potentiator	Menin MLL FP FL	TRPV1 PAM	ClpP mod	gsp ag
O=C(c1ccc(Br)c([N+](=O)[O-])c1)N1CCN(Cc2ccccc2)CC1	15%	-4%	-5	0.1	-15	1.8%	?
COc1ccc(CC(=O)OCC(=O)c2ccc(S(=O)(=O)N3CCCCC3)cc2)cc1	/	-3%	-11	/	8	-2.9%	-8%
CCOC(=O)c1cccc(NC(=O)C2(S(=O)(=O)c3ccc(C)cc3)CC2)c1	4%	1%	-24	5.3	1	1.7%&-7.7%	-47%
Cc1cc(C(=O)CCl)c(C)n1-c1cccc([N+](=O)[O-])c1	5%	15%	-5	-6.7	3	-0.7%	13%[15.4 µM]
CC(=O)C[C@@H](O)CC(=O)[C@@H]1OC(=O)CCCCCCc2ccccc21	/	3%	-4	/	/	-4.1%	15%
CCCNC(=O)C(NS(=O)(=O)c1cccc2nsnc12)c1ccccc1 (stereo not given)	19%	-1%	-8	1.8	2	3.2%	-2%
Cc1ccc(-c2nc(CN3CCCCC3CCN3CCCC3=O)c(C)o2)o1 (stereo not given)	17%	2%	-16	15	21	/	10%[15.4 µM]
CC(=O)c1cc2c(s1)-c1cc(F)ccc1OC2	6%	10%	0	7.0	-4	-0.6%	-8%[15.4 µM]
COc1cc(C2C(C(=O)c3ccco3)=C(O)C(=O)N2c2cc(C)on2)ccc1OCc1ccccc1 (stereo not given)	0%	/	/	-1.5	11	/	/
C=CCc1ccccc1OCCSc1nc2ccc([N+](=O)[O-])cc2s1	-3%	4%	11	1.6	7	-1.0%	-13%
O=C(NCCN1CCOCC1)c1cccc(S(=O)(=O)Nc2cc(Cl)ccc2Cl)c1	/	-21%	-6	/	8	-1.5%	-26%
COC(=O)C1C2C=CC3(CN(c4cccc(C)c4)C(=O)C13)O2 (stereo not given)	13%	-4%	3	2.1	0	1.2%	-13%

# The list goes on:
smiles	Sfp PPTase inh	gsp antagonist	D2 potentiator	Menin MLL FP FL	TRPV1 PAM	ClpP mod	gsp ag
C=CCOc1ccccc1CNn1c(C)n[nH]c1=S	/	/	-28	/	/	-5.4%	?
COCCn1cnc2c1c(=O)n(CC(=O)NC1CCCCC1)c(=O)n2Cc1ccccc1	/	/	-7	/	/	1.7%	-28%
O=C(O)C1CCCCC1C(=O)N1CCCC1 (stereo not given)	27%	10%	-1	-8.0	-11	/	5%
COc1ccc(N2CCN(C(=O)CNS(=O)(=O)c3ccc(C)c(C)c3)CC2)cc1	10%	-11%	-5	3.8	0	/	12%[15.4 µM]
CN(C)CCN(C(=O)CCc1ccccc1)c1nc2c(F)cc(F)cc2s1	2%	2%	-22	-2.2	?	3.2%	6%
Cc1cc(SCC(=O)c2cccs2)n2nc(C)c(-c3ccccc3)c2n1	1%	-21%	-23	0.9	-21	-6.5%	-6%
C=CCNC(=S)NNC(=O)c1ccco1	4%	-3%	1	2.5	-1	/	?
CCOc1cc(C2C(C#N)=C(N)Oc3n[nH]c(CC)c32)ccc1OCCN1CCOCC1 (stereo not given)	12%	8%	-41	0.0	3	0.5%	-22%
CC1CCCN(S(=O)(=O)c2ccc(NC(=O)CN3CCCCC3)cc2)C1 (stereo not given)	17%	5%	-2	1.4	11	-3.0%	?
Cc1c(/C(O)=C2\C(=O)C(=O)N(CCN(C)C)C2c2ccccc2)cnn1-c1ccccc1 (stereo not given)	14%	4%	-1	1.2	-9	/	40%
FC(F)(F)c1cccc(N2CCN(C3CC4CCC3C4)CC2)c1 (stereo not given)	-7%	-16%	-11	-2.9	6	0.1%	0%[15.4 µM]
O=C(COc1ccc(Br)cc1CO)Nc1ccc(S(=O)(=O)N2CCCCC2)cc1	/	-19%	-1	/	-5	-2.7%	-15%

# Next entries.
smiles	Sfp PPTase inh	gsp antagonist	D2 potentiator	Menin MLL FP FL	TRPV1 PAM	ClpP mod	gsp ag
CCCCC(CC)Cn1c(O)c(/C=C2\C=NN=C2c2ccccc2)sc1=S (stereo not given)	15%	7%	-7	3.9	14	2.6%	?
N#CCN(C(=O)COC(=O)C1CC2CCCC(C1)C2=O)c1ccccc1 (stereo not given)	/	2%	-11	/	-6	0.3%	-4%[15.4 µM]
CCOc1ccc(CCNC(=O)COC(=O)c2cc(S(=O)(=O)N3CCOCC3)ccc2F)cc1OCC	7%	-15%	-7	/	25	/	-6%[15.4 µM]
Cc1ccc(S(=O)(=O)c2nc(S(C)(=O)=O)sc2NCc2ccc3c(c2)OCO3)cc1	4%	7%	23	2.6	-10	-2.0%	0%
CC(=O)Nc1ccc(S(=O)(=O)NN=Cc2ccc(Cl)c(Cl)c2)cc1	/	-9%	-26	/	/	/	-5%
N/C(COc1ccccc1)=N\NS(=O)(=O)c1ccccc1	7%	4%	-9	3.9	27	0.4%	-2%
Cc1c(C(=O)NCCN2CCOCC2)oc2ccc(Br)cc12	/	0%	-22	/	-15	0.6%	21%
CN(c1ccc(OCC(=O)N2CCC(C(N)=O)CC2)cc1)S(=O)(=O)c1cccs1	9%	7%	0	1.5	-6	-0.4%	?
CC[C@@]1(C(=O)OC)N[C@H](CN(C)S(=O)(=O)c2ccc(C(C)(C)C)cc2)[C@@H]2C(=O)N(C)C(=O)[C@@H]21	/	-10%	-1	/	/	1.1%	/
Cc1ccccc1NNC(N)=S	50µM*	20%	3	-4.2	8	/	38%[15.4 µM]
Cc1ccccc1-n1c(=S)[nH]c2nc3c(cc2c1=O)COC(C)(C)C3	-15%	-20%	-13	1.8	-6	-12%	16%
COc1ccc(C(=O)N2CCCC(Nc3ccc(F)cc3)C2)c(OC)c1 (stereo not given)	9%	7%	-6	/	-13	-18%	11%[15.4 µM]

# The results go on.
smiles	Sfp PPTase inh	gsp antagonist	D2 potentiator	Menin MLL FP FL	TRPV1 PAM	ClpP mod	gsp ag
CC(=O)Nc1ccc(/C=N/N2C(C)CCCC2C)cc1 (stereo not given)	19%	10%	1	1.9	-29	/	-22%[15.4 µM]
CC(C)=CC(=O)Nc1ccccc1C(N)=O	-7%	5%	15	-2.1	24	-2.3%	4%
CCOC(=O)c1c(C)n(C)c2ccc(OCC(N)=O)cc12	15%	1%	-2	7.8	23	-0.5%	?
O=C(Nc1ccc(N2CCCC2)c(Cl)c1)c1ccccc1F	/	/	-18	/	/	-1.3%	-149%[inhibitor]
CCOc1cc(N2CCOCC2)c(OCC)cc1NS(=O)(=O)c1ccc(Cl)s1	-4%	20%	?	-0.2	6	-1.7%	14%
CC1CCCN(C(=O)CN2C(=O)NC3(CCCCC3C)C2=O)C1 (stereo not given)	/	-4%	-37	/	0	/	15%[15.4 µM]
c1c(CC2CCCC2)nnn1C[C@H]1CC[C@@H]([C@@H]2CC[C@H](Cn3cc(CC4CCCC4)nn3)O2)O1	1%	3%	-6	1.2	-4	1.1%	-31%[inhibitor]
CCOC(=O)c1[nH]c(C)c(/C(O)=C2\C(=O)C(=O)N(CCN3CCOCC3)C2c2ccco2)c1C (stereo not given)	1%	5%	-1	7.6	3	/	18%

# Source: PubChem BioAssay (National Center for Advancing Translational Sciences (NCATS))
